Vaccinia stage – Vaccinia orthopox stage-specific inhibition; activity change (mCherry), % (no concentration beside the values); Vaccinia-infected cells, mCherry/Venus stage reporter fluorescence; hits give low values; some inactives read as strong as hits; 89,000 tested, 0.01% active;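 active = mCherry past -33% and 40 or more points under the early reporter, replicates agreeing; inconclusive = past -33% without that gap or agreement; tested in A549 cells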;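 also: scaled between vehicle wells and reference inhibitor wells; 23 nL library stock went into each well; one replicate is shown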
Vaccinia stage Venus – second read-out of Vaccinia stage, no call of its own (marks repeat the call); activity change (Venus), %; measured here: Venus reporter, other viral stage;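 negative = less Venus signal; first of two replicates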
* marks the source's active call; other numbers are inactive results; ? = inconclusive; · = not tested or not shown. A portion of the library (hit frequency here may not be typical).

compound | Vaccinia stage | Vaccinia stage Venus
O=C(C[C@H]1C[C@@H]2c3cc(NS(=O)(=O)c4ccc(F)cc4)ccc3O[C@@H]2[C@H](CO)O1)N1CCOCC1 | 28.4 | 17.6
Cc1noc(C)c1S(=O)(=O)Nc1cccc2c1O[C@H](CN(C)S(=O)(=O)c1ccccc1)[C@H](C)CN([C@@H](C)CO)C2=O | 10.9 | 10.3
O=C(c1ccccc1F)N1CC(=O)N2[C@H](CO)[C@@H](c3ccc(-c4cccnc4)cc3)[C@H]2C1 | -18.7 | -19.2
C[C@H](CO)N1C[C@H](C)[C@@H](CN(C)S(=O)(=O)c2cccs2)Oc2ccc(NS(=O)(=O)c3ccc(Cl)cc3)cc2CC1=O | -13.7 | -16.5
CN(C)CC(=O)N[C@H]1CC[C@H](CCNC(=O)Nc2ccc(F)cc2)O[C@@H]1CO | -3.6 | -4.6
C[C@@H]1CN([C@@H](C)CO)C(=O)c2cc(/C=C/c3ccccc3)cnc2O[C@@H]1CN(C)C(=O)C1CCOCC1 | 4.9 | 1.4
CN(C)CCCNC(=O)C[C@H]1CC[C@@H](NS(=O)(=O)c2ccc(F)cc2)[C@H](CO)O1 | 0.4 | 12.4
O=C(c1cccnc1)N1C[C@@H]2[C@H](c3ccccc31)[C@@H](CO)N2C(=O)C1CCCCC1 | 16.2 | 10.3
C/C=C/c1ccc([C@H]2[C@@H](CO)N(C(=O)NC3CCCCC3)[C@H]2C#N)cc1 | -2.7 | 2.2
COc1ccc(NC(=O)Nc2ccc3c(c2)[C@H]2C[C@@H](CC(=O)NCC4CC4)O[C@@H](CO)[C@H]2O3)cc1 | 11.9 | 12.9
CC(C)NC(=O)N(C)C[C@H]1OCCCC[C@@H](C)Oc2ccc(NS(=O)(=O)c3cccs3)cc2C(=O)N([C@@H](C)CO)C[C@H]1C | 15.2 | 9.4
CN(C)C(=O)C[C@H]1C=C[C@@H](NC(=O)NC2CCCC2)[C@@H](CO)O1 | 0.0 | 4.8
COCC(=O)N(C)C[C@H]1Oc2cc(-c3cncnc3)ccc2S(=O)(=O)N([C@@H](C)CO)C[C@H]1C | 12.2 | 3.1
C[C@@H]1CN([C@H](C)CO)C(=O)c2cc(NC(=O)c3ccncc3)ccc2O[C@@H]1CN(C)Cc1ccc(-c2ccccc2)cc1 | -31.8 | -25.9
O=S(=O)(c1cccs1)N1CCCCN2[C@H](CO)[C@@H](c3ccc(Br)cc3)[C@H]2C1 | 0.0 | -7.6
O=C(C[C@@H]1C=C[C@@H](NC(=O)c2ccncc2)[C@H](CO)O1)Nc1ccc(-c2ccccc2)cc1 | 4.7 | 8.8

Grouped by structure, those above containing two or more sulfur atoms
compound | Vaccinia stage | Vaccinia stage Venus
Cc1noc(C)c1S(=O)(=O)Nc1cccc2c1O[C@H](CN(C)S(=O)(=O)c1ccccc1)[C@H](C)CN([C@@H](C)CO)C2=O | 10.9 | 10.3
C[C@H](CO)N1C[C@H](C)[C@@H](CN(C)S(=O)(=O)c2cccs2)Oc2ccc(NS(=O)(=O)c3ccc(Cl)cc3)cc2CC1=O | -13.7 | -16.5
CC(C)NC(=O)N(C)C[C@H]1OCCCC[C@@H](C)Oc2ccc(NS(=O)(=O)c3cccs3)cc2C(=O)N([C@@H](C)CO)C[C@H]1C | 15.2 | 9.4
O=S(=O)(c1cccs1)N1CCCCN2[C@H](CO)[C@@H](c3ccc(Br)cc3)[C@H]2C1 | 0.0 | -7.6

(next part)
compound | Vaccinia stage | Vaccinia stage Venus
C[C@@H]1CCCCO[C@H](CN(C)S(=O)(=O)c2ccc(F)cc2)[C@@H](C)CN([C@@H](C)CO)C(=O)c2cc(NC(=O)c3ccccc3)ccc2O1 | -19.5 | -14.7
Cc1noc(C)c1S(=O)(=O)N(C)C[C@H]1OCCCC[C@H](C)Oc2ccc(NS(C)(=O)=O)cc2C(=O)N([C@H](C)CO)C[C@H]1C | 19.9 | 5.2
O=C(NCC[C@H]1CC[C@H](NS(=O)(=O)c2ccc(Oc3ccccc3)cc2)[C@H](CO)O1)C1CC1 | -14.2 | -6.1
COCC(=O)N1CC(=O)N2[C@H](CO)[C@@H](c3ccc(-c4ccncc4)cc3)[C@H]2C1 | 1.2 | -5.4
COc1ccc(CN2CC3(CCN(C(=O)C4CCOCC4)CC3)c3c(n(C)c4cc(OC)ccc34)[C@H]2CO)cc1 | -5.8 | -5.8
Cc1noc(C)c1S(=O)(=O)Nc1ccc2c(c1)C(=O)N([C@@H](C)CO)C[C@@H](C)[C@H](CN(C)Cc1ccc(C(=O)O)cc1)OCCCC[C@@H](C)O2 | 15.0 | 9.3
CCNC(=O)c1cc2c(c(-c3cccc(-c4cccc(C(=O)N(C)C)c4)c3)n1)[C@@H](CCO)N([S@](=O)C(C)(C)C)C2 | 23.3 | 26.4
COc1ccc(C#Cc2ccc([C@@H]3[C@@H](CO)N4CCCCN(C(=O)Cc5cccnc5)C[C@H]34)cc2)cc1 | ? | ·
Cc1noc(C)c1NC(=O)Nc1cccc2c1O[C@@H](CN(C)Cc1ccc(Cl)c(Cl)c1)[C@@H](C)CN([C@@H](C)CO)C2=O | -21.2 | -14.0
CN1c2ccc(C#Cc3cccnc3)cc2[C@@H]2[C@@H](CCN2S(=O)(=O)c2ccc(F)cc2)[C@H]1CO | 2.6 | 9.9
C[C@@H]1CN([C@H](C)CO)C(=O)c2cc(NC(=O)c3ccncc3)ccc2O[C@@H](C)CCCCO[C@@H]1CN(C)C(=O)C1CCCCC1 | 7.4 | 8.6
C[C@@H]1CN([C@H](C)CO)C(=O)c2cccc(NC(=O)c3ccc(-c4nccs4)cc3)c2O[C@H]1CN(C)Cc1ccc(Oc2ccccc2)cc1 | -13.3 | -13.0
CCCNC(=O)N[C@@H]1C=C[C@H](CC(=O)NC2CCCCC2)O[C@@H]1CO | 2.4 | 8.2
C[C@@H]1CCCCO[C@H](CN(C)CC2CC2)[C@H](C)CN([C@@H](C)CO)C(=O)c2cc(NS(=O)(=O)c3cccs3)ccc2O1 | 13.4 | 8.0
O=C(C[C@H]1C[C@@H]2c3cc(NC(=O)Cc4ccncc4)ccc3O[C@@H]2[C@H](CO)O1)NCC1CC1 | 8.0 | 10.7
C[C@H]1CCCCO[C@H](CN(C)S(=O)(=O)c2ccc(Cl)cc2)[C@@H](C)CN([C@@H](C)CO)C(=O)c2cc(NS(C)(=O)=O)ccc2O1 | -14.2 | -12.8
COc1ccccc1S(=O)(=O)N[C@@H]1CC[C@H](CCNC(=O)C2CC2)O[C@H]1CO | 2.9 | 4.2
C[C@@H]1CN([C@H](C)CO)S(=O)(=O)c2ccc(C#Cc3ccccc3F)cc2O[C@@H]1CN(C)C | -21.9 | -19.5
O=C(C[C@@H]1CC[C@@H]2[C@H](COC[C@H](O)CN2CC2CCCC2)O1)NCC1CC1 | 2.3 | 5.3
COc1ccc(S(=O)(=O)Nc2cccc3c2O[C@@H](CN(C)CC2CC2)[C@H](C)CN([C@H](C)CO)C3=O)cc1 | -0.5 | -1.6
CO[C@@H]1CC[C@@H]2CCOc3c(C#N)cccc3C(=O)N(C)[C@@H](C)C(=O)N(C)C[C@H]1O2 | 11.5 | 10.6
CC(=O)n1cc([C@@H]2C=C(C(=O)O)O[C@H](OCc3ccc(CO)cc3)C2)c2ccccc21 | 8.0 | 7.2
C[C@H]1CN([C@@H](C)CO)C(=O)c2cccc(NC(=O)c3nc4ccccc4s3)c2O[C@@H]1CN(C)S(=O)(=O)c1ccc(F)cc1 | 0.0 | -6.6
CO[C@H]1CN(C)C(=O)c2ccc(NS(=O)(=O)c3ccccc3C)cc2OC[C@H](C)NC[C@@H]1C | 8.5 | 7.6
O=C(CCN1CCCCC1)NCC[C@H]1CC[C@@H](NC(=O)C2CCOCC2)[C@H](CO)O1 | 7.4 | 7.5
CN(C)C(=O)C[C@@H]1CC[C@H]2[C@@H](COC[C@H](O)CN2S(=O)(=O)c2ccccc2)O1 | 12.1 | 8.1
O=C(C[C@H]1C[C@@H]2c3cc(NC(=O)Nc4ccccc4)ccc3O[C@@H]2[C@H](CO)O1)NCc1ccncc1 | 5.7 | 5.3
COCC(=O)N[C@@H]1C=C[C@@H](CC(=O)NCc2ccccc2OC)O[C@@H]1CO | 3.4 | 5.9
C[C@H](CO)N1C[C@H](C)[C@H](CN(C)S(=O)(=O)c2cccs2)Oc2c(NC(=O)c3cnccn3)cccc2C1=O | -6.1 | -7.8
Cc1noc(C)c1NC(=O)Nc1ccc2c(c1)C(=O)N([C@H](C)CO)C[C@@H](C)[C@H](CN(C)S(=O)(=O)c1ccc(F)cc1)OCCCC[C@@H](C)O2 | 15.8 | 8.7
CCCC(=O)Nc1ccc2c(c1)OC[C@@H](C)N(Cc1ccc(F)cc1)C[C@@H](C)[C@H](OC)CN(C)C2=O | 1.7 | -1.3
C[C@@H]1CN([C@H](C)CO)S(=O)(=O)c2ccc(-c3ccccc3F)cc2O[C@@H]1CN(C)CC1CC1 | -17.8 | -18.9

Next structures
compound | Vaccinia stage | Vaccinia stage Venus
COCCN(C[C@@H]1[C@@H](c2ccccc2)[C@H](CO)N1C(=O)C1CC1)C(C)=O | 3.9 | 2.0
C[C@@H]1CN([C@H](C)CO)C(=O)c2cccc(NC(=O)Nc3cccc4ccccc34)c2O[C@H]1CN(C)C(=O)Nc1ccc(F)cc1 | -15.3 | -17.4
CO[C@@H]1CN(C)C(=O)c2cc(NC(C)=O)ccc2OC[C@H](C)N(Cc2ccc(F)cc2)C[C@@H]1C | 7.1 | -11.3
CO[C@H](CN(C)S(=O)(=O)c1ccccc1)[C@H](C)CN(Cc1ccccc1Cl)[C@@H](C)CO | 6.9 | 1.5
C[C@H]1CN([C@@H](C)CO)C(=O)c2cc(C#Cc3ccccn3)cnc2O[C@@H]1CN(C)Cc1cccnc1 | 3.9 | 1.7
O=C(Nc1ccc(C(F)(F)F)cc1)N[C@@H]1CC[C@@H](CCNC(=O)c2ccccc2F)O[C@@H]1CO | -5.6 | 0.4
CN1C(=O)c2cc(NC(=O)C3CCCC3)ccc2OC[C@H]2O[C@H](CC(=O)NCC3CC3)CC[C@H]21 | -4.6 | -7.2
CC(C)CC#Cc1cnc2c(c1)C(=O)N([C@H](C)CO)C[C@H](C)[C@@H](CN(C)C(=O)c1ccccc1)O2 | 7.4 | 1.3
C[C@@H]1CN([C@H](C)CO)C(=O)c2cc(C#CC3CCCCC3)cnc2O[C@@H]1CN(C)C(=O)NC1CCCC1 | ? | ·
O=C(C[C@H]1C[C@H]2c3cc(NC(=O)C4CCOCC4)ccc3O[C@H]2[C@@H](CO)O1)NCc1ccccn1 | 11.5 | 5.5
CCCC#Cc1ccc([C@@H]2[C@H]3CN(CCC)CCCCN3[C@H]2CO)cc1 | -25.6 | -19.4
COc1ccccc1NC(=O)N[C@H]1CC[C@H](CCNS(=O)(=O)c2ccc(C)cc2)O[C@H]1CO | -4.7 | -7.4
C[C@H]1CCCCO[C@H](CN(C)C(=O)Cc2ccccc2)[C@@H](C)CN([C@@H](C)CO)C(=O)c2cc(NS(=O)(=O)c3ccc(Cl)cc3)ccc2O1 | ? | ·
CCNC(=O)[C@H]1[C@H](CO)[C@H]2Cn3c(ccc(C4=CCCC4)c3=O)[C@@H]1N2Cc1ccncc1 | 23.6 | 9.6
C[C@H](CO)N1C[C@H](C)[C@@H](CN(C)Cc2ccc(C(F)(F)F)cc2)Oc2c(cccc2N(C)C)C1=O | -18.1 | -17.5
C[C@@H]1CCCCO[C@@H](CN(C)Cc2ccc(C(=O)O)cc2)[C@H](C)CN([C@@H](C)CO)C(=O)c2cc(NS(=O)(=O)c3ccc(F)cc3)ccc2O1 | 27.5 | 7.9
COCC(=O)N1C[C@@H](C)[C@@H](OC)CN(C)C(=O)c2cc(NC(=O)c3cc(C)on3)ccc2OC[C@@H]1C | 7.7 | 4.4
O=C(Nc1cccc(F)c1)N1CC(=O)N2[C@H](CO)[C@@H](c3ccc(-c4ccc(F)cc4)cc3)[C@H]2C1 | ? | ·
CCCC#Cc1ccc2c(c1)O[C@H](CN(C)C(=O)CC)[C@@H](C)CN([C@@H](C)CO)S2(=O)=O | -8.1 | -4.8
C[C@H](CO)N1C[C@H](C)[C@@H](CN(C)Cc2ccc(Oc3ccccc3)cc2)Oc2ccc(NC(=O)Cc3ccccc3)cc2CC1=O | ? | ·
CN1C(=O)c2cc(NC(=O)c3cscn3)ccc2OC[C@H]2O[C@H](CC(=O)N3CCOCC3)CC[C@@H]21 | 9.3 | 15.4
Cc1ccc(S(=O)(=O)N[C@@H]2CC[C@H](CCNC(=O)C3CCOCC3)O[C@@H]2CO)cc1 | 13.7 | 6.1
C[C@@H]1CN([C@H](C)CO)S(=O)(=O)c2ccc(C3=CCCC3)cc2O[C@H]1CN(C)C(=O)Cc1ccncc1 | 15.5 | 12.6
C[C@H](CO)N1C[C@H](C)[C@H](CN(C)C(=O)CC2CC2)Oc2cc(-c3cncnc3)ccc2S1(=O)=O | 4.8 | 1.2
O=S(=O)(N[C@@H]1CC[C@H](CCn2cc(-c3cccnc3)nn2)O[C@H]1CO)c1ccc(Cl)cc1 | -4.7 | -4.5
CC(=O)N1CCCCN2[C@@H](CO)[C@@H](c3ccc(-c4ccncc4)cc3)[C@@H]2C1 | 19.9 | 4.2
C[C@H](CO)N1C[C@H](C)[C@@H](CN(C)C(=O)Nc2ccc3c(c2)OCCO3)OCc2cnnn2CCCC1=O | 16.6 | 9.7
Cc1cccc(-c2ccc([C@@H]3[C@H](CO)N4CCCCN(C(=O)c5cccnc5)C[C@@H]34)cc2)c1 | -22.2 | -16.0
C[C@@H]1CCCCO[C@H](CN(C)C(=O)Nc2ccc3c(c2)OCO3)[C@H](C)CN([C@H](C)CO)C(=O)c2cc(NC(=O)CCC(F)(F)F)ccc2O1 | -20.0 | -13.7
C[C@H]1CN([C@@H](C)CO)C(=O)c2cccc(NC(=O)C3CCCCC3)c2O[C@H]1CN(C)Cc1ccncc1 | 0.4 | -2.0

Compound activity deposited in PubChem BioAssay by Broad Institute.
